Cruzain inh noDet: cruzain (T. cruzi) inhibition without detergent; actives 2.3% (n = 200,000); purified cruzain, Z-FR-AMC fluorescence, no detergent; Potency, µM, without a hit: max response, negative = inhibition, usual class: inhibitors; P25779;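 also: plate controls were enzyme without inhibitor for no effect and buffer without enzyme for full effect; nearly all actives have a fitted effect of over 40% in size; top concentration of the series not given in the record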
Target sequence (P25779 123-467 limits assumed): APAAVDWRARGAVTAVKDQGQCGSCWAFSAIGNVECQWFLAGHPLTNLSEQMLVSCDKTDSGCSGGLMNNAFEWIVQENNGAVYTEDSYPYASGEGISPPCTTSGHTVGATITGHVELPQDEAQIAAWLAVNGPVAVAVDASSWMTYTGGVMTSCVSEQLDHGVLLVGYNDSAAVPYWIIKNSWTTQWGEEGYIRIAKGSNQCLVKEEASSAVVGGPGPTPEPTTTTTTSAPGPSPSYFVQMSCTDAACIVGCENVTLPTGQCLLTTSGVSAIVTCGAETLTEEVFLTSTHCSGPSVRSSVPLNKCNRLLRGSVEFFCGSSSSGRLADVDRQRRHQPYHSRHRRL
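Detergent-free condition (0.00005% Triton X-100) in acetate buffer pH 5.5 with DTT. 1.5 nM enzyme and compound were pre-mixed 15 min, then 2 uM Z-FR-AMC substrate added; reaction progress from fluorescence change between first and third reads (60 s).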
StopGo reporter: lowers the luciferase signal of an FMDV 2A StopGo reporter; AID 1159524; actives 1.2% (n = 410,000); Potency, µM (series often up to 57.9 µM), for inactives: at the highest dose signal change, negative = less light; human cells with a luciferase reporter of 2A StopGo recoding; control for the full effect not named in the record; active = well fitted falling curve with a large enough effect; inconclusive = small, poorly fitted or top-dose-only effect; inactive = no such curve, though single readings can be large or run the other way; tested in HEK293T cells; also: % is scaled to controls: 0 for no effect and ±100 for the full control effect; nearly all actives have a fitted effect of over 45% in size; luciferase light after 4 h
SARS PLP yeast: inhibitors of SARS-CoV papain-like protease in yeast | S. cerevisiae expressing SARS-CoV PLpro, growth rescue; control for the full effect not named in the record | Potency, µM (series often up to 32.9 µM), without a hit: at the highest dose activity, positive = growth rescue | actives 0.19% (n = 330,000) | AID 485353; active means well fitted rising curve with a large enough effect; inconclusive means small, poorly fitted or top-dose-only effect; inactive means no such curve, though single readings can be large or run the other way; also: 0% is about no effect; nearly all actives have a fitted effect of over 55% in size; growth read by luminescence after 48 h
MARV entry inh: inhibitors of Marburg virus binding or cell entry. Marburg virus pseudotyped entry inhibition, cell reporter; control for the full effect not named in the record; about a third of the inactives were read at about 46 µM. actives 1.8% (n = 300,000). Potency, µM (top dose mostly 37.8 µM), inactives show at the highest dose activity change, negative = inhibition, most hits filed as inhibitors. AID 540276; active = well fitted inhibition curve with a large enough effect; inconclusive = small, poorly fitted or top-dose-only effect, or effect the other way; inactive = flat fitted curve, though single readings scatter; tested in HEK293 cells; about a fifth of its hits are not listed in these tables; also: % is scaled to controls: 0 for no effect and ±100 for the full control effect; luciferase read-out
NS1 function inh: blocks influenza NS1 protein function; S. cerevisiae slowed by influenza A NS1, growth recovery by OD600; Potency, µM (highest dose often 46.1 µM), without a hit: top-dose activity, positive = more growth; actives 0.4% (n = 270,000); active means well fitted rising curve with a large enough effect; inconclusive means small, poorly fitted or top-dose-only effect; inactive means no such curve, though single readings can be large or run the other way; also: nearly all actives have a fitted effect of over 50% in size
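Compounds were scored for reversing the slow growth caused by influenza A NS1 in S. cerevisiae, measured by optical density at 600 nm. Assay medium contained 2% galactose at pH 6.0; NS1-free yeast of the same strain were the positive control.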
LASV entry inh: blocks Lassa virus binding to or entry into cells. Lassa virus pseudotype entry inhibition, cell reporter; control for the full effect not named in the record. actives 1.2% (n = 300,000). Potency, µM (series often up to 37.9 µM), inactives show at the top dose activity change, negative = inhibition, hits mostly inhibitors; active means well fitted inhibition curve with a large enough effect; inconclusive means small, poorly fitted or top-dose-only effect, or effect the other way; inactive means flat fitted curve, though single readings scatter; tested in HEK293 cells; also: % is scaled to controls: 0 for no effect and ±100 for the full control effect; nearly all actives have a fitted effect of over 50% in size; luciferase read-out
RE007 growth inh: less growth of the S. pombe RE007 Vpr strain; actives 0.21% (n = 360,000); AID 651644; S. pombe RE007 Vpr strain, BacTiter-Glo ATP luminescence, 24 h; control for the full effect not named in the record; Potency, µM (titrated, usually from 92.2 µM), for the others: at the highest dose activity change, negative = less growth; active = well fitted falling curve with a large enough effect; inconclusive = small, poorly fitted or top-dose-only effect; inactive = no such curve, though single readings can be large or run the other way;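 also: % is scaled to controls: 0 for no effect and ±100 for the full control effect; nearly all actives have a fitted effect of over 50% in size; the assay follows cell death caused by Vpr and the record does not say whether a fall means rescue or toxicity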
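Fission yeast strain RE007, carrying one chromosomally integrated HIV-1 vpr copy, was seeded at OD 0.01 in PMG+AL medium with 23 nL pinned compound. After 24 h at 30 °C and 99% humidity, viability was read by BacTiter-Glo luminescence.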
Cruzain inh Det: blocks cruzain activity in presence of Triton detergent. purified cruzain, Z-FR-AMC fluorescence, 0.01% Triton. Potency, µM, inactives show max response, negative = inhibition, hits mostly inhibitors. actives 0.43% (n = 200,000). AID 1478;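 also: plate controls were neutral wells for no effect and buffer without enzyme for full effect; nearly all actives have a fitted effect of over 40% in size; top concentration of the series not given in the record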
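Purified cruzain (1.5 nM final) was preincubated with compounds for 15 min at room temperature in 100 mM sodium acetate pH 5.5, 5 mM DTT, 0.01% Triton X-100. Reaction started with 2 uM Z-FR-AMC; AMC fluorescence change over 60 s gave activity.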
Numbers without * were called inactive; u = inconclusive; x = no result given; & = joins results of further samples; [ ] = another dose, or the depositor's remark. Unless noted, calls follow the shape of the dose curve; as a rule, active = well fitted curve in the direction sought with a large enough effect; inconclusive = small, poorly fitted or top-dose-only effect, or another doubt; inactive = no such curve, though single readings can be large; an effect the other way counts as inactive or inconclusive. Potency is read from the fitted curve at half-maximal effect.

SMILES	Cruzain inh noDet	StopGo reporter	SARS PLP yeast	MARV entry inh	NS1 function inh	LASV entry inh	RE007 growth inh	Cruzain inh Det
CCOC(=O)CSc1cc(CS(=O)c2ccc(Cl)cc2)nc(-c2ccccc2)n1 (configuration not stated)	1%	-11%	3%	-21%	10%	-9%	-8%	-5.9%
Cc1ccc(/C=N/Nc2ccc(C(=O)O)cc2)s1	x	6.3µM*	0%	x	x	1.1µM*	-16%	x
Cn1c(SCC(=O)O)nc2sc3c(c2c1=O)CCC3	x	-2%	0%	x	0%	x	5%	x
CCn1c(SCc2c(F)cccc2Cl)nnc1-c1ccco1	-2%	x	10%	-22%	-101%	1%	-3%	-1.8%
CCOC(=O)C(O)(c1ccc(NC(=O)c2ccco2)c(OC)c1)C(F)(F)F (configuration not stated)	4%	-14%	-14%	-2%	-77%	-11%	1%	-0.4%
Cc1ccccc1OCCn1c(=O)oc2ccccc21	-15%	-10%	-1%	6%	-39%	13%	-19%	1.1%
CCc1ccc(-n2nc3cc(C)c(N)cc3n2)cc1	x	-23%	-3%	x	u	x	2%	x
O=c1nc2c(-c3cccc(Br)c3)n[nH]n2c2ccccc12	x	20%	0%	5%[46.1 µM]	-6%	18%	-8%	x
CCC(=O)Nc1ccc(S(=O)(=O)Nc2c(C)nc3nc[nH]n3c2=O)cc1	x	-10%	-1%	20%[46.1 µM]	-14%	-1%	-13%	x
COc1ccc(Cl)cc1NC(=O)CN(C)C(=O)c1ccc(COc2ccccc2)cc1	x	u	-11%	-17%	x	u	11%	x
CCc1cccc(C)c1Nc1c(-c2cccc(O)c2)nc2sccn12	19%	0%	x	-4%[46.1 µM]	x	-22%[46.1 µM]	x	-9.3%
O=C(NCCc1nnc2ccc(NCc3ccccc3Cl)nn12)c1ccccc1	x	u	0%	u	x	-11%[46.1 µM]	2%	x
Cc1ccnc(SCC(=O)c2cccc([N+](=O)[O-])c2)n1	-14%	-9%	29%	28%	7%	0%	8%	-2.7%
O=C(O)CSCC(=O)NCc1ccc(Cl)cc1Cl	x	0%	1%	-3%[46.1 µM]	7%	11%[46.1 µM]	8%	x
C=CCN1C(=O)C(Cc2ccc(F)cc2)S/C1=N/N=C/c1cccs1 (configuration not stated)	-4%	-5%	5%	22%	8%	-25%	7%	-3.5%
COC(=O)c1cn(NC(=O)Cn2nc([N+](=O)[O-])c(Cl)c2C)c(=O)c2ccccc12	x	-9%	2%	u	x	5%	2%	x
COc1ccc2cc(C(=O)N3CCN(c4cccc(C)c4C)CC3)[nH]c2c1	x	-8%	-3%	u	16%	5%[46.1 µM]	-5%	x
COc1ccnc(Oc2ccccc2)c1C(=O)N/C=N/OCc1ccccc1F	x	-19%	-1%	6%[46.1 µM]	-3%	-22%	-5%	x
CCNC(=O)OCCC12CC3CC(CC(C3)C1)C2	7%	-3%	12%	9%	-12%	-7%	20%	-5.6%
CN(Cc1ccccc1)Cc1nc2c(c(=O)n(C)c(=O)n2C)n1CCCc1ccccc1	u	x	-2%	u	-96%	u	3%	5.5%
Cn1c(SCc2nc3ccccc3[nH]2)nnc1-c1ccccn1	-10%	-2%	x	0%	-1%	3%	9%	-1.7%
CC(O)CSc1nc2c(c(=O)[nH]c(=O)n2C)n1Cc1ccccc1 (configuration not stated)	x	2%	4%	x	-5%	x	-11%	x
COC(=O)c1cccc(C23CC4(C2)[C@H](CN(Cc2ccc(C(F)(F)F)cc2)[C@@H]4c2ccccc2)C3c2ccccc2)c1 (some centres not stated)	-29%	-9%	-5%	x	u	x	-8%	0.2%
CN1Cc2sc(N)c(C#N)c2CC1(C)C	-28%	0%	1%	1%	-21%	-8%	3%	-3.6%
Cc1cc(C)c2sc(N(Cc3cccnc3)C(=O)CCS(=O)(=O)c3ccccc3)nc2c1	u	-17%	x	x	x	9%[46.1 µM]	x	-1.9%

The results go on.
SMILES	Cruzain inh noDet	StopGo reporter	SARS PLP yeast	MARV entry inh	NS1 function inh	LASV entry inh	RE007 growth inh	Cruzain inh Det
Cc1ccc(C(=O)C2=C(O)C(=O)N(Cc3cccnc3)C2c2cccc([N+](=O)[O-])c2)o1 (configuration not stated)	x	12%	-2%	14%	-20%	6%	-5%	x
CCCCNC(=O)CS(=O)Cc1nc(-c2cccs2)oc1C (configuration not stated)	-8%	0%	3%	x	11µM*	x	-7%	-1.1%
CCC(C)N1C(=O)CN(C2CCCCCC2)C(=O)C1c1ccccc1F (configuration not stated)	x	-16%	-2%	-23%[46.1 µM]	x	-2%	28%	x
Cc1nnc(SCC(=O)NC2CCCCC2)[nH]c1=O	x	1%	0%	u	9%	3%[46.1 µM]	2%	x
Cc1ccc(OCC(=O)N2CCN(C(=O)c3ccc([N+](=O)[O-])cc3)CC2)cc1	x	-9%	-1%	x	7%	x	1%	x
O=C(COc1ccc(Br)cc1CNC1CCCCC1)NCCc1ccccc1	x	-22%	1%	11µM*	x	u	-13%	x
O=C(CN(CC1CCCO1)C(=O)CCC(=O)Nc1nccs1)NCc1ccc2c(c1)OCO2 (configuration not stated)	-4%	-11%	4%	26%	-4%	2%	-11%	-5.6%
COc1ccc(C(=O)CN2CCN(S(=O)(=O)c3ccc(C(C)C)cc3)CC2)cc1	3%	u	x	x	x	-18%[46.1 µM]	x	-3.9%
COc1cc(N)c(Cl)cc1C(=O)OCC(=O)c1ccc2c(c1)NC(=O)CO2	x	u	-1%	u	x	19%	18%	x
CC(C)c1ccc(NC2CCCN(C(=O)CCN3Cc4ccccc4C3=O)C2)cc1 (configuration not stated)	x	-2%	-2%	x	-18%	x	1%	x
C=CCc1ccccc1Oc1cc(OC)nc(N)n1	x	-19%	-3%	20%	x	u	-13%	x
Cc1ccc(Nc2c(-c3ccccc3O)nc3ncccn23)cc1	x	-6%	-1%	x	5%	x	-7%	x
COc1ccc(/C=N/N2C(=N)SCC2=O)cc1	x	0%	2%	u	0%	u	-4%	x
Cn1ccnc1C(=O)c1cc(SCC(=O)NCc2ccccc2)nc2ccccc12	x	-28%	-1%	u	-11%	-25%	41%	x
Cn1cc(-c2cc3n(n2)CCC(=O)N3CCCC(=O)NCc2ccc(Cl)cc2)c2ccccc21	18%	-25%	x	x	x	u	x	-1.5%
COC(=O)c1c(NC(=O)CSc2nccn2C)sc(C)c1C	x	-5%	8%	-11%	x	22%	0%	x
CC1CCC(=NO)C(=NO)C1 (configuration not stated)	x	-8%	x	-6%	x	u	-13%	x
Cc1cc(=O)n(C)c2ccc(S(=O)(=O)N3CCOCC3)cc12	x	-11%	0%	x	-17%	x	4%	x
CCOc1ccc(NC(=O)Nc2ccc(Br)cn2)cc1	x	22%	-1%	u	-2%	7%[46.1 µM]	2%	x
COc1ccc(OC)c(CNc2ccc([N+](=O)[O-])cc2C)c1	x	u	-9%	-27%[46.1 µM]	x	-1%	31%	x
Cc1onc(-c2ccccc2Cl)c1C(=O)N1CCN(C)CC1	x	-7%	-3%	-11%[46.1 µM]	-3%	19%	-15%	x
Cc1ccc(CNC(=O)CN(C)S(=O)(=O)c2ccc3c(c2)n(C)c(=O)c(=O)n3C)cc1	x	-14%	-1%	x	5%	x	5%	x
CCCCN(C(C)=O)c1c(N)n(CCC)c(=O)n(CC(=O)Nc2cc(Cl)cc(Cl)c2)c1=O	x	-8%	1%	-14%[46.1 µM]	x	10%	-3%	x
NS(=O)(=O)c1ccc(CCNC(=O)c2ccc(=O)[nH]c2)cc1	x	-16%	3%	15%[46.1 µM]	3%	12%	22%	x
Cc1cc2ccccc2n1CCNC(=O)COc1ccc2ccccc2c1	9%	-11%	-18%	3%	21%	x	12%	-12%

(next part)
SMILES	Cruzain inh noDet	StopGo reporter	SARS PLP yeast	MARV entry inh	NS1 function inh	LASV entry inh	RE007 growth inh	Cruzain inh Det
Cc1ccc2c(Sc3ccccc3)c(C(=O)NCc3ccccc3F)[nH]c2c1	11%	36%[activator]	x	-6%[46.1 µM]	x	1%[46.1 µM]	x	-7.5%
CCOc1ccc(NC(=S)N(CCc2c(C)[nH]c3ccccc23)Cc2cccnc2)cc1	u	-11%	23%	-30%	-1%	-27%	-2%	-2.3%
COc1ccc(OCC(=O)NNC(=O)c2cccnc2)cc1	-14%	10%	4%	10%	10%	-2%	3%	5.8%
CCOC(=O)[C@@H]1[C@H]2COc3cc(OC)ccc3[C@@H]2N2C(=O)N(c3ccc(F)cc3)C(=O)[C@]12C	x	-10%	-3%	x	3%	x	-7%	x
CCOc1ccc(CCNC(=O)COC(=O)Cc2c[nH]c3ccccc23)cc1OCC	x	-14%	0%	-9%	x	1%	14%	x
COc1ccccc1/C=C/C(=O)OC(C)CN1CCCCC1 (configuration not stated)	x	-6%	0%	16%	13%	u	-22%	x
CCOC(=O)C1C(=O)CC(O)(c2ccccc2)CC1c1ccccc1 (configuration not stated)	1%	-18%	-1%	3%	-7%	-13%	1%	1.3%
COc1ccccc1N1CCN(C(=O)c2cc(=O)c3ccc(C)cc3o2)CC1	x	-2%	0%	x	7%	x	24%	x
O=C(NN=C1C2CC3CC(C2)CC1C3)c1ccccc1O	x	3%	-3%	-4%	-3%	x	6%	x
CC(=O)Oc1cccc(/C=N\NC(=O)C(=O)N/N=C/c2cccc(OC(C)=O)c2)c1	x	-13%	-10%	9%	x	15%	-1%	x
COc1ccc(C2=C(C=C(C#N)C#N)C(c3ccccc3C)c3ccccc3O2)cc1OC (configuration not stated)	-27%	-17%	11%	u	27%	u	-9%	-5.1%
COc1cc(NC(=O)c2cnc(N)o2)cc(C(=O)Nc2cccc(C(F)(F)F)c2)c1	x	18µM*	-4%	x	u	x	-2%&11%	x
COc1ccc2c(c1OC)C(=O)N(c1ccc(C)cc1)C2	x	33%[activator]	1%	u	-32%	u	-19%	x
CCC(C)C(NC(=O)OCc1ccccc1)C(=O)OCN1C(=O)c2ccccc2C1=O (configuration not stated)	-5%	9%	-5%	6%	-41%	13%	-4%	-4.9%
CCC[C@@H](NS(=O)(=O)c1ccc(C)cc1)C(=O)Oc1ccc2c3c(c(=O)oc2c1)CCC3	6%	-3%	-13%	-14%	28%	19%	23%	-15%
